Bioassay records from PubChem.
gsp agonist: qHTS for Agonist of gsp, the Etiologic Mutation Responsible for Fibrous Dysplasia/McCune-Albright Syndrome: qHTS | gsp mutant cells, cAMP HTRF, 30 min; control for the full effect not named in the record | Potency, µM (top dose mostly 76.9 µM), for the others: top-dose activation (cAMP increase), actives largely listed as activators | 340,000 compounds, 0.13% hits | AID 624287, 2012; active = well fitted activation curve with a large enough effect; inconclusive = small, poorly fitted or top-dose-only effect, or another doubt; inactive = no such curve, though single readings can be large or run the other way; cell line not stated here;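 also: phosphodiesterase inhibitor Ro 20-1724 added with compounds to block cAMP breakdown; potency is read from the fitted curve at half-maximal effect; nearly all actives have a fitted effect of over 60% in size; about a fifth of the inactives were tested at one dose only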
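Cells stably selected in G418 were plated at 2000/well, grown 16-24 hr, then given compounds in DMSO with the PDE inhibitor […] (300 uM solution added) for 30 min at 37C; cAMP was read by HTRF.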
Menin MLL FP FL: qHTS Assay for Inhibitors Targeting the Menin-MLL Interaction in MLL Related Leukemias: Competition With Fluorescein Labeled MLL-derived Peptide. Fluorescence polarization, fluorescein-MLL peptide displacement from menin. FP activity change, % at 61.4 µM. 290,000 tested, under 10 active; inconclusive = falling polarisation curve, or a change in total fluorescence; inactive = total fluorescence flat and polarisation flat or rising; no compound was filed as active; the % refers to the polarisation; negative = inhibition;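 also: % of control where 0% means no effect; inhibitors lower the polarisation; unlabelled MLL peptide was the positive control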
gsp antag: qHTS for Antagonists of gsp, the Etiologic Mutation Responsible for Fibrous Dysplasia/McCune-Albright Syndrome: qHTS | gsp-mutant cells, cAMP HTRF, 30 min; control for the full effect not named in the record | Potency, µM (highest dose often 76.9 µM), inactives show top-dose activity change, negative = inhibition, most hits filed as inhibitors | 340,000 compounds, 0.4% hits; active = falling curve of any shape with a large fitted effect; inconclusive = falling curve, mostly with a smaller effect; inactive = flat or rising curve; cell line not stated here;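 also: intracellular cAMP measured with PDE inhibitor Ro 20-1724 present during compound exposure; potency is read from the fitted curve at half-maximal effect; % is scaled to controls: 0 for no effect and ±100 for the full control effect; nearly all actives have a fitted effect of over 65% in size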
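HTRF cAMP read-out (cAMP-d2 plus anti-cAMP antibody-K in lysis buffer, 30 min RT). Before lysis, cells are exposed to compounds with […] for 30 min at 37C in DPBS containing Ca/Mg, BSA and Tween 20.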
Sfp PPTase inh: qHTS Assay for Inhibitors of Bacillus subtilis Sfp phosphopantetheinyl transferase (PPTase); 4'-phosphopantetheinyl transferase ffp (Bacillus subtilis), Q9F4F7; Biochemical Sfp PPTase activity, qHTS; Potency, µM, without a hit: max response, negative = inhibition, actives largely listed as inhibitors; 310,000 compounds, 3.5% hits; active = well fitted inhibition curve with a large enough effect; inconclusive = small, poorly fitted or top-dose-only effect, or another doubt; inactive = no such curve, though single readings can be large or run the other way;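 also: the enzyme is Sfp with the accession as filed and its product quenches rhodamine fluorescence; potency is read from the fitted curve at half-maximal effect; 0% = enzyme reaction without inhibitor and -100% = no enzyme wells; top concentration of the series not given in the record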
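Fluorescence-quenching assay: 15 nM Sfp-PPTase preincubated 15 min at room temperature with compound, then 5 uM rhodamine-CoA and 12.5 uM BHQ-2-labelled YbbR peptide added. Fluorescence (ex 525/em 598 nm) read at start and after 30 min; difference gives rate.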
CtBP-E1A blk: qHTS Assay for Inhibitors of the CtBP/E1A Interaction | AlphaScreen GST-E1A/His-CtBP binding, 1536-well; active compounds read low; control for the full effect not named in the record | 340,000 compounds, 0.49% hits | AID 651724, 2012 | CtBP / adenovirus E1A interaction (AlphaScreen) | activity change, % (test concentration not listed); in the data active means activity change below about -65%; inconclusive means about -30% to -65%; inactive means above about -30%; also: % is scaled to controls: 0 for no effect and ±100 for the full control effect
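Homogeneous bead-based format: GST-tagged E1A captured on glutathione donor beads, His-tagged CtBP on nickel acceptor beads; compounds precede bead addition by 2 h at 37 °C.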
ClpP mod: qHTS Assay for Activators of ClpP; ATP-dependent Clp protease proteolytic subunit (Bacillus subtilis (strain 168)), P80244; purified B. subtilis ClpP, FRET peptide cleavage, 20 min; Potency, µM (top dose mostly 57.5 µM), without a hit: at the top dose activity change, negative = active; 340,000 compounds, 1.9% hits; active = well fitted falling curve with a large enough effect; inconclusive = small, poorly fitted or top-dose-only effect; inactive = no such curve, though single readings can be large or run the other way; also: potency is read from the fitted curve at half-maximal effect; the source files actives as falling curves though it sought activators and does not explain the sign; nearly all actives have a fitted effect of over 65% in size; many hits overshoot -100%
Target sequence (P80244 whole entry, looked up): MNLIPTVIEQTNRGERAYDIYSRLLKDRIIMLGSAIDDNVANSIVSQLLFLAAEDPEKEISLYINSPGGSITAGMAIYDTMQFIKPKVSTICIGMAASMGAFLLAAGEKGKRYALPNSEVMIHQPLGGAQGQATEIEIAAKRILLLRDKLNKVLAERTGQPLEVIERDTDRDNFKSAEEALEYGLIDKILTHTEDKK
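Purified B. subtilis ClpP, 10 microg/mL final in Tris/HCl pH8 with KCl, BSA, glycerol and Tween-20, cleaved an Abz/nitrotyrosine-quenched decapeptide. Fluorescence (ex 320, em 430) was read at 0 and 20 min at room temperature. Delta was normalized to 5.8 microM ADEP and DMSO/no-enzyme controls.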
TRPV1 potentiator: HTS Assay for Compounds that Act as Potentiators of the Vanilloid Receptor 1; potentiation, % at 8.33 µM; Transient receptor potential cation channel subfamily V member 1 (Homo sapiens), Q8NER1; TRPV1-expressing cells, Fluo-8 calcium influx, capsaicin EC20 potentiation; host cell line not named in the record; control for the full effect not named in the record; 320,000 compounds, 0.02% hits; active means potentiation above 80%; inconclusive means 30% to 80%; inactive means below 30%; also: 0% is about no effect
Target sequence (Q8NER1 whole entry, looked up): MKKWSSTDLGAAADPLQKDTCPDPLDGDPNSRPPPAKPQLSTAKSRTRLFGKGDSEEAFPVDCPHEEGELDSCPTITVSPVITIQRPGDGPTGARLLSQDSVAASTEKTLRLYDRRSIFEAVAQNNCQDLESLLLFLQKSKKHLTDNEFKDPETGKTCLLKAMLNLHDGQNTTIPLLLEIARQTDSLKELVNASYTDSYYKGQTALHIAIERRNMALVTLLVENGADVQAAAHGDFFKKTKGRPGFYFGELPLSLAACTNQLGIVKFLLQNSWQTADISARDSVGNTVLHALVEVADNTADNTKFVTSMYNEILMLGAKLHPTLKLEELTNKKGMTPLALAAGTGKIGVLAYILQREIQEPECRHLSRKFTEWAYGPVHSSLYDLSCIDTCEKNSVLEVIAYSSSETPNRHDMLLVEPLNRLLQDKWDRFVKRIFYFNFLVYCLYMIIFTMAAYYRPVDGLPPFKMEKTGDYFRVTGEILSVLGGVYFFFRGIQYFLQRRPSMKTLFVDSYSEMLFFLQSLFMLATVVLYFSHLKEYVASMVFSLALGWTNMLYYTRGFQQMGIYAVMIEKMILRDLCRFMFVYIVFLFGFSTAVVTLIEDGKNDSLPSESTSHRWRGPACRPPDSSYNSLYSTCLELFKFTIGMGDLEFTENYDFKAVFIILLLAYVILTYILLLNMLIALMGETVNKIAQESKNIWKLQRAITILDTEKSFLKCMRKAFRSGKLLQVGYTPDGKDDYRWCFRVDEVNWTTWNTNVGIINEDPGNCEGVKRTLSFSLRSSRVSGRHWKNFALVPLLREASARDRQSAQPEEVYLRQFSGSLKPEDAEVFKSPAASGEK
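Fluo-8 calcium influx in TRPV1-expressing cells, kinetic read (ex 480/em 520 nm). Compound added and read 3 min for agonist activity, followed by capsaicin at EC20 final and 2 min further read for enhancement.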
* = called active by the depositor; ? = inconclusive; nt = no result given; & = joins results of further samples; [ ] = another dose, or the depositor's remark.

SMILES | gsp agonist | Menin MLL FP FL | gsp antag | Sfp PPTase inh | CtBP-E1A blk | ClpP mod | TRPV1 potentiator
CCCCn1c(N)c(N(C)C(=O)c2cc3c(s2)CCCCC3)c(=O)[nH]c1=O | 26% | nt | 3% | nt | -1 | -8.7% | 25
COc1ccccc1-c1coc2cc(OC(=O)/C=C/c3ccccc3)ccc2c1=O | -51%[inhibitor] | -2.1 | -10% | 23% | -68* | -15% | 2
C=CCc1cccc2cc(C(=O)Nc3ccccc3C(=O)O)c(=O)oc12 | ? | -4.8 | ? | -5% | 0 | nt | 0
Fc1ccccc1Cn1nnc2c(-n3ccnc3)ncnc21 | -5% | 2.6 | -8% | -4% | 2 | -2.3% | 1
COc1ccccc1Nc1nc(-c2cccc([N+](=O)[O-])c2)cs1 | 2% | 1.0 | ? | 11µM* | nt | -0.4% | -19
Cc1ccc(/C=C2\Oc3cc(OCC(=O)NN)ccc3C2=O)o1 | 2% | 16 | -18% | 5% | -3 | nt | 0
COc1cccc(NC(=O)Nn2cnnc2)c1 | -34%[inhibitor] | -1.0 | 1% | -4% | 6 | 0.4% | 18
COc1cc2nc(SCc3ccc(C(F)(F)F)cc3)n(Cc3cccs3)c(=N)c2cc1OC | -22% | 4.1 | -4% | 9% | 6 | 0.7% | 8
Cc1ccc2nc(NC(=O)c3ccc(N4C(=O)CCC4=O)cc3)sc2c1 | -1% | -4.6 | -1% | 0% | -1 | nt | -6
Cc1cccc(NC(=O)CSc2nc(N)c(NC(=O)c3ccccc3F)c(=O)[nH]2)c1 | -1%[15.4 µM] | nt | -20% | -6% | -3 | -20% | 14
COc1ccc(CN2C[C@H](Cc3ccccc3)[C@@H](CC(=O)Nc3ccccc3)C2=O)cc1 | -8% | -1.0 | -13% | -4% | nt | 0.9%&2.1% | -10
CCN(CC)S(=O)(=O)c1cccc(NC(=O)COC(=O)c2[nH]c(C)c(C(C)=O)c2C)c1 | -56%[inhibitor] | nt | nt | nt | -1 | -0.9% | nt
Cc1ccc(N2C(=O)[C@@H]3C(C(=O)CCN4C(=O)c5ccccc5C4=O)=NN[C@@H]3C2=O)cc1 | 4%[15.4 µM] | 1.9 | -1% | -2% | -1 | nt | 10
COc1ccc([C@@H]2CC=C(C(=O)O)[C@H](c3ccc(Br)cc3)N2S(=O)(=O)c2ccc(C)cc2)cc1OC | nt | nt | -19% | nt | 1 | -1.7% | nt
CN(C)CCOc1ncnc2c1oc1ccccc12 | 5% | 0.4 | 10% | 31%[activator] | 6 | -1.6% | -18
COC(=O)c1sc(N)c(C(=O)OC)c1COC(=O)CCNS(=O)(=O)c1ccc(C)cc1 | 19%[15.4 µM] | 8.6 | -11% | -11% | -6 | -2.4% | 7
Cc1csc(NC(=O)CSc2nncc(=O)n2N)n1 | 3%[15.4 µM] | 3.0 | 3% | -14% | 0 | 0.2% | 1
Cc1nc2c(oc3ccccc32)c(=O)o1 | 9% | 13 | 0% | 1% | -11 | -19% | 17
NS(=O)(=O)c1ccc(NC(=O)CSc2nc3c(cnn3-c3ccccn3)c(=O)[nH]2)cc1 | 10% | nt | 5% | nt | -4 | -1.7% | 0
CCN(CC)C(=O)C1CCCN(C/C=C/c2ccccc2[N+](=O)[O-])C1 (centres undefined) | 9%[15.4 µM] | -3.2 | 0% | -9% | 0 | -0.1% | -5
COc1ccc2cc(CCl)c(Cl)nc2c1 | -90%[inhibitor] | 7.1 | 5% | ? | nt | 4.2% | -3
CC(=O)NC(c1ccco1)c1ccc2cccnc2c1O (centres undefined) | 4% | -0.1 | 9% | 10% | -97* | 0.8% | 10
COc1ccc(NC2CCCN(C(=O)CN3CCOC3=O)C2)cc1 (centres undefined) | 12% | nt | 2% | ? | 6 | -5.2% | -22
CC1(C)N=C(c2ccc(Cl)cc2Cl)C(=O)N1 | 7% | 5.7 | 2% | 14% | 5 | 1.2% | -2
CCCCCn1c(=O)[nH]c2cc(C(=O)NCCc3ccc(OC)c(OC)c3)ccc2c1=O | -1% | -2.6 | 18% | -6% | -2 | -4.2% | 9

Single records, as listed above. Order of values: gsp agonist	Menin MLL FP FL	gsp antag	Sfp PPTase inh	CtBP-E1A blk	ClpP mod	TRPV1 potentiator
COc1ccccc1Nc1nc(-c2cccc([N+](=O)[O-])c2)cs1 across the screens: 2%	1.0	?	11µM*	nt	-0.4%	-19
COc1ccc(CN2C[C@H](Cc3ccccc3)[C@@H](CC(=O)Nc3ccccc3)C2=O)cc1 across the screens: -8%	-1.0	-13%	-4%	nt	0.9%&2.1%	-10
COc1cc2nc(SCc3ccc(C(F)(F)F)cc3)n(Cc3cccs3)c(=N)c2cc1OC across the screens: -22%	4.1	-4%	9%	6	0.7%	8
COc1cccc(NC(=O)Nn2cnnc2)c1 across the screens: -34%[inhibitor]	-1.0	1%	-4%	6	0.4%	18
Cc1ccc(N2C(=O)[C@@H]3C(C(=O)CCN4C(=O)c5ccccc5C4=O)=NN[C@@H]3C2=O)cc1 across the screens: 4%[15.4 µM]	1.9	-1%	-2%	-1	nt	10

Carrying on:
SMILES | gsp agonist | Menin MLL FP FL | gsp antag | Sfp PPTase inh | CtBP-E1A blk | ClpP mod | TRPV1 potentiator
O=C(COC(=O)c1ccccc1Cc1ccccc1)NC1CCS(=O)(=O)C1 (centres undefined) | -44%[inhibitor] | nt | 5% | -5% | -5 | -1.6% | -14
CC1=NN(C(=O)c2ccc(Br)cc2)C(O)(C(F)(F)OC(F)(F)F)C1 (centres undefined) | -1%[15.4 µM] | 2.1 | -23% | 14% | -2 | -4.9% | -10
COc1ccc(CC(=O)N/N=C(\C)CC(=O)NCc2ccco2)cc1OC | -3% | -0.4 | 8% | 6% | 2 | 1.0% | -9
COc1ccc(-c2nc(C#N)c(N3CCN(c4cccc(Cl)c4)CC3)o2)cc1OC | 0% | 0.0 | 1% | 14% | 2 | 28µM* | 16
O=C1CC2(CCN(C(=O)C(=O)c3c[nH]c4ccccc34)CC2)Oc2ccccc21 | ? | 8.9 | -21% | 9% | 2 | -14% | -4
COc1cccc(-c2ccc(NC(=O)C3CCCN(Cc4cnn(C(C)C)c4)C3)cc2)c1 (centres undefined) | 15% | -2.7 | 5% | -11% | -26 | -4.2% | 7
O=C(N/N=C/C=C\c1ccco1)c1ccccn1 | 5%[15.4 µM] | ? | 2% | 20µM* | 10 | 1.0% | 4
NS(=O)(=O)c1ccc(NNC(=O)c2ccc(Br)o2)c([N+](=O)[O-])c1 | -48%[inhibitor] | nt | ? | nt | -3 | -2.6% | nt
CCn1c(CN2c3ccccc3Sc3ccccc32)n[nH]c1=S | 0% | 2.0 | -11% | 3% | -15 | nt | -18
Cn1nc(C(=O)NCc2cccc(F)c2)cc1C(=O)NCc1cccc(F)c1 | -3% | nt | -4% | nt | nt | -1.6% | 14
O=C(N/N=C/c1ccccc1[N+](=O)[O-])C(=O)N1CCCC1 | 7%[15.4 µM] | -2.1 | nt | -7% | -18 | nt | 0
NC(=O)[C@@H]1CC2(CC(c3cccc(NC(=O)COc4ccc(Cl)cc4)c3)=NO2)CN1C(=O)COc1ccc(Cl)cc1 (some centres undefined) | 2% | 4.7 | -11% | 7% | -19 | 0.1% | 12
Cc1noc(C)c1NC(=O)Nc1cccc2c1O[C@H](CN(C)S(=O)(=O)c1ccc(F)cc1)[C@@H](C)CN([C@H](C)CO)C2=O | nt | nt | 0% | nt | 0 | -0.1% | nt
Cc1cccc(NC(=O)Cn2cnc3c(oc4ccccc43)c2=O)c1 | 18%[15.4 µM] | -0.5 | 0% | 13% | -2 | 1.3% | 5
CCCCn1c(SCC(N)=O)nnc1-c1ccco1 | ? | 0.3 | 8% | 4% | 1 | 0.3% | ?
CC1CC(C)CN(C(=O)C(C)N2CCN(S(=O)(=O)c3ccc(C(F)(F)F)cc3)CC2)C1 (centres undefined) | -48%[inhibitor] | nt | -24% | nt | nt | 1.5% | nt
CC(C)(CNC(=S)NCCc1ccccc1)CNC(=S)NCCc1ccccc1 | -3% | -6.3 | 35µM* | -17% | ? | -5.0% | -2
Cc1ccc(C(=O)O/N=C/C2=C(Cl)c3ccccc3CC2)cc1 | 4% | 1.6 | 3% | ? | 10 | -16% | 7
CC[C@]12c3[nH]c4ccc(OC)cc4c3CCN1C(=O)C(CC(=O)NCCN1CCOCC1)C[C@@H]2C(=O)N1CCN(C(=O)C2CC2)CC1 (some centres undefined) | nt | nt | 9% | nt | 1 | -1.6% | nt
Cc1ccnc(SCC(=O)Nc2sc3c(c2C#N)CCCC3)n1 | -33%[inhibitor] | 1.1 | ? | -1% | -2 | 0.9% | 27
CCOC(=O)CSc1nc(C)c2cc(OC)ccc2n1 | -7% | 3.0 | -2% | 7% | 4 | 14µM* | ?
CCCCOc1ccc(/C(O)=C2/C(=O)C(=O)N(CCCOC)C2c2ccncc2)cc1C (centres undefined) | ? | -3.1 | -3% | 0% | 1 | -1.3% | 0
O=c1oc2ccccc2c(Cl)c1CN1CCCCC1 | -34%[inhibitor] | -0.6 | -2% | 16% | -2 | -24% | -9
COCCCn1cnc2c(c1=O)c1nc3ccccc3nc1n2-c1ccccc1 | ? | 0.7 | -3% | 8% | -1 | ? | 2
Cc1ccc(CNC(=O)C(=O)NCC2OCCN2S(=O)(=O)c2ccc(Cl)cc2)cc1 (centres undefined) | -8%[15.4 µM] | nt | -9% | nt | 20 | -3.5% | nt
CCC1CCCCN1CCCNC(=O)CN1C(=O)CSc2ccc(S(=O)(=O)N3CCC(C)CC3)cc21 (centres undefined) | -50%[inhibitor] | -13 | 10% | 7% | -2 | -0.9%&0.1% | -4
